RGS16-Gao HTS = modulates binding between human RGS16 and Galphao; O15492+P09471; bead-based flow cytometry RGS16-Galphao binding, fluorescence; actives lie on both sides; binding response (% of control), % at 10 µM; actives 0.38% (n = 220,000); AID 1441;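 active = below 25% or above 175%, edge rows of some plates excepted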;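 note: Galphao activated by GDP with aluminum fluoride before binding; 100% = wells without compound and 0% = beads without RGS; some results beyond the cut were filed as inactive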
Target sequence (O15492 whole entry, looked up): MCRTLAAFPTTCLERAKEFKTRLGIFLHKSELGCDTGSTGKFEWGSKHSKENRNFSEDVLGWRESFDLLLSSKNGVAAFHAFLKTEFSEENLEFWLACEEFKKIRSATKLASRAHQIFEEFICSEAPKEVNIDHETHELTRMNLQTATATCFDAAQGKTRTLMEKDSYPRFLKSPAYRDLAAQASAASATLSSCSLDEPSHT
Target sequence (P09471 whole entry, looked up): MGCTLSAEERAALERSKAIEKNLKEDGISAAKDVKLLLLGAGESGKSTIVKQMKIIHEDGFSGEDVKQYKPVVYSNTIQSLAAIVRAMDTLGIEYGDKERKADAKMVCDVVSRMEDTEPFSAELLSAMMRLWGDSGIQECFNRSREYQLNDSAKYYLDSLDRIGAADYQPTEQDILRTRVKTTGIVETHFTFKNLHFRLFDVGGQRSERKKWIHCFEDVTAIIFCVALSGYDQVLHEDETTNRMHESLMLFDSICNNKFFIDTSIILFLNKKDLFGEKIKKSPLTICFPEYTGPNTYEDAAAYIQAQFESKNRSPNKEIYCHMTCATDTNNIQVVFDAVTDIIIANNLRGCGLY
Insulin prom inh = TRM-6 insulin promoter activity inhibition. TRM-6 cells (human fetal islet line), insulin promoter-eGFP reporter, imaging; reporter expression induced with tamoxifen. inhibition, % at 2 µM. actives 0.9% (n = 130,000);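 active = inhibition above the mean plus 3 SD, with well images judged a real hit on visual review, cut at about 60% in these data, passing the limit was not always enough; inconclusive = inhibition over the cutoff but images rejected on review; inactive = inhibition not above the cutoff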
GALR2 agonist = activates the human galanin receptor 2 | actives 0.48% (n = 140,000) | activation, %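 (tested at 5 µM)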 | AID 803 | O43603 | GALR2-expressing cells, agonist activation read-out;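 active = above mean plus 3 SD of all compounds, about 5% in these data, not always enough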;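 note: 0% = vehicle buffer wells and 100% = reference agonist at full effect; tested in CHO reporter cells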
Target sequence (O43603 whole entry, looked up): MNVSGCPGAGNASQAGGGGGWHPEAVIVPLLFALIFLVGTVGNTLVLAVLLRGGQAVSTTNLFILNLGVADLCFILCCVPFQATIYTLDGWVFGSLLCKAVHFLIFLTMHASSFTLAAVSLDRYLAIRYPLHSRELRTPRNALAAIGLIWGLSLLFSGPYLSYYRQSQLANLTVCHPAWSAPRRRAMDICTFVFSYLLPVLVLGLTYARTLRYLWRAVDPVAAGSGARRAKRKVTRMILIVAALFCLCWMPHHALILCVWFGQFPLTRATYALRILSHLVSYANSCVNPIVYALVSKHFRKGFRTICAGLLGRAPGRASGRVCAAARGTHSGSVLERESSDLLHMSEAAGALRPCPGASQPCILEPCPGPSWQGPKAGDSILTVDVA
PKD1 kinase inh = PKD1 (human) kinase inhibition. Q15139. PKD1 kinase fluorescence polarization assay. inhibition, %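 (about 10 µM by stock and volumes)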. actives 0.056% (n = 200,000);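 active = inhibition of 50% or more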;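 note: controls were vehicle for no effect and a reference inhibitor for full effect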
HSV augment = increases HSV replication in cells | HSV replication augmentation in cells, fold increase | maximum fold increase | actives 0.005% (n = 220,000);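 active = peak rise of 1.5-fold or more in the series; inconclusive = self-fluorescent or not available for retest; tested in PC3 cells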;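 note: first round at 10 µM; read as green reporter fluorescence; hits show the peak of a series up to 25 µM; 1 = signal of infected wells without compound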
Insulin prom inh cell count = second read-out of Insulin prom inh, no call of its own (marks repeat the call); normalized cell count, %; measured here: cell count, toxicity; reference of the scale not given here;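 cells exposed to compound for 48 h; stained nuclei by imaging scaled within each plate; lower means fewer cells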
HSV augment primary fold = also measured in HSV augment; calls as there; fold increase; compound at 10 µM; measured here: primary screen fold increase 10 uM; tested in PC3 cells;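 GFP signal in the first replicate; 1 = infected wells without compound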
Starred values were filed as active, the others as inactive; i = inactive; ? = inconclusive; / = not tested or not shown. An unsorted share of the library; overall some 1.2% were active at least once.

SMILES	RGS16-Gao HTS	Insulin prom inh	Insulin prom inh cell count	GALR2 agonist	PKD1 kinase inh	HSV augment	HSV augment primary fold
CCn1c(SCC(=O)Nc2ccc(S(N)(=O)=O)cc2)nnc1-c1cccc(OC)c1	105	/	/	-2.9	-4	i	0.89
O=C(C1CCC1)N1CCc2cc(S(=O)(=O)NCCN3CCN(c4ccccc4F)CC3)ccc21	101	31	77	-2.5	-16	/	/
Cc1cc(C(F)F)n2nc(C(=O)Nc3ccccc3Br)nc2n1	90	-46	210	2.0	-4	i	0.91
COc1cc(C(=O)O)nc2ccc([N+](=O)[O-])cc12	96	33	120	/	-7	i	0.96
CC(CNC(=O)C1CCCCC1C(=O)O)c1ccccc1 (stereo unspecified)	102	29	73	-4.0	-10	i	1.1
O=C(CSc1nnc(NC2CCCCC2)s1)Nc1ccc(N2CCOCC2)cc1	102	19	126	-2.3	-1	i	1.1
Cc1ccc(NC(=O)CSc2nc(-c3ccco3)cc(C(F)(F)F)n2)cc1C	109	0	107	-0.6	-1	i	0.6
Cc1cccc(Nc2ncc3c(n2)CC(C)CC3=O)c1 (stereo unspecified)	103	-44	47	0.9	9	i	0.94
CCOC(=O)c1csc(NC(=O)c2cc(=O)c3ccccc3o2)n1	95	/	/	/	-5	i	1.1
COc1ccc(N=c2oc3c(OC)cccc3cc2C(=O)NCc2ccco2)c(OC)c1	100	21	76	0.3	-3	i	0.75
CCOC(=O)c1[nH]c2ccccc2c1NC(=O)C1CCCC1	108	/	/	/	/	i	0.93
COc1ccccc1N1CCN(C(=O)N2CCOCC2)CC1	77	60	106	-4.0	-5	i	0.8
CCc1ccc(-n2c(SCC(=O)c3ccc4c(c3)NC(=O)CO4)nc3ccccc3c2=O)cc1	102	/	/	/	4	i	0.98
CC(=O)Nc1ccc(S(=O)(=O)N2CCN(C(C)CCc3ccccc3)CC2)cc1 (stereo unspecified)	107	-26	116	0.2	12	i	1
CCOc1ccccc1/C=c1\sc2ncnn2c1=O	104	-10	144	0.8	-11	i	0.79

Overlap with the part before: 5 compounds, followed by the next part.
SMILES	RGS16-Gao HTS	Insulin prom inh	Insulin prom inh cell count	GALR2 agonist	PKD1 kinase inh	HSV augment	HSV augment primary fold
CCOC(=O)c1[nH]c2ccccc2c1NC(=O)C1CCCC1	108	/	/	/	/	i	0.93
COc1ccccc1N1CCN(C(=O)N2CCOCC2)CC1	77	60	106	-4.0	-5	i	0.8
CCc1ccc(-n2c(SCC(=O)c3ccc4c(c3)NC(=O)CO4)nc3ccccc3c2=O)cc1	102	/	/	/	4	i	0.98
CC(=O)Nc1ccc(S(=O)(=O)N2CCN(C(C)CCc3ccccc3)CC2)cc1 (stereo unspecified)	107	-26	116	0.2	12	i	1
CCOc1ccccc1/C=c1\sc2ncnn2c1=O	104	-10	144	0.8	-11	i	0.79
Oc1c(Br)cc(C2N=C(c3ccccc3)NO2)cc1Br (stereo unspecified)	100	-26	83	-0.3	2	i	1
Cc1ccc2c(c1)-c1c(ssc1=S)C(C)(C)N2C(=O)c1ccco1	72	71	114	-2.2	5	i	0.7
CCOC(=O)/C(N=Nc1sc(C(=O)OC)c(C)c1C(=O)OCC)=C(\O)CCl	96	/	/	-1.0	12	i	1
CCn1cc(CNC(=O)c2cc(-c3ccccc3OC)nc3ccccc23)c(C)n1	99	/	/	-2.1	-3	i	1.1
O=C(COC(=O)CCSc1ccc(Cl)cc1)NCCc1ccccc1	102	/	/	0.1	1	i	0.95
Cc1ccc(S(=O)(=O)N(C)CC(O)Cn2c3ccccc3c3ccccc32)cc1 (stereo unspecified)	103	-54	70	0.8	4	i	1
CCS(=O)(=O)c1ccc2oc(Nc3cc(C)cc(C)c3)nc2c1	103	39	57	0.2	0	i	0.71
COc1cc(CC(NC(C)=O)C(=O)NC2CCN(C(=O)c3cc(OC)c(OC)c(OC)c3)CC2)cc(OC)c1 (stereo unspecified)	284	6	75	/	-1	i	0.96
CCN1CCN(C(=O)C2CCN(Cc3nc(-c4cccc(Cl)c4)oc3C)CC2)CC1	105	/	/	-2.9	6	i	0.82
CC1CCCN(Cc2cccc(Oc3ccccc3)c2)C1 (stereo unspecified)	115	11	123	-0.5	1	i	1
Cc1ccccc1C(=O)Nc1cccc(NC(=S)NC(=O)c2cccs2)c1	102	20	78	-1.4	-10	?	/
COC(=O)c1ccccc1NC(=O)C1CCCN(S(=O)(=O)c2ccccc2)C1 (stereo unspecified)	101	25	135	-2.6	1	i	1.1
Cc1cc(NC(=O)c2c([N+](=O)[O-])cnn2C)no1	97	30	82	-0.6	1	i	1
O=C1CC(NC(=O)C(F)(F)F)=NN1c1ccccc1	96	/	/	/	-5	i	0.99
CCOC(=O)Nc1ccc2c(CN3C(=O)NC(CC)(CC)C3=O)cc(=O)oc2c1	103	39	88	-1.7	-6	i	0.93

Record cards (already shown).
`CCS(=O)(=O)c1ccc2oc(Nc3cc(C)cc(C)c3)nc2c1` is listed as RGS16-Gao HTS: 103; Insulin prom inh: 39; Insulin prom inh cell count: 57; GALR2 agonist: 0.2; PKD1 kinase inh: 0; HSV augment: i; HSV augment primary fold: 0.71
`CCN1CCN(C(=O)C2CCN(Cc3nc(-c4cccc(Cl)c4)oc3C)CC2)CC1` is listed as RGS16-Gao HTS: 105; Insulin prom inh: /; Insulin prom inh cell count: /; GALR2 agonist: -2.9; PKD1 kinase inh: 6; HSV augment: i; HSV augment primary fold: 0.82

Next results follow.
SMILES	RGS16-Gao HTS	Insulin prom inh	Insulin prom inh cell count	GALR2 agonist	PKD1 kinase inh	HSV augment	HSV augment primary fold
COc1ccc(OCCOCCOc2ccc(C)cc2[N+](=O)[O-])cc1	121	-6	65	-1.9	4	i	1.1
O=C(Oc1cccc(N2C(=O)C3C4c5ccccc5C(c5ccccc54)C3C2=O)c1)c1ccco1 (stereo unspecified)	99	/	/	-0.4	-6	i	1
Cc1ccc(NC(=S)N2CCCC(CO)C2)c(C)c1 (stereo unspecified)	104	/	/	/	-3	i	0.93
CCc1ccc(NC(=O)CSc2nc3[nH]ncc3c(=O)[nH]2)cc1	97	/	/	/	-3	i	0.86
O=C(Nc1ccccn1)C12CC3CC(CC(C3)C1)C2	62	-10	97	-1.5	1	i	0.95
Cc1ccc(S(=O)(=O)C(NC(=O)c2ccccc2)=C(Cl)Cl)cc1	/	-23	106	-1.9	8	i	0.67
Cc1ccc(-c2nnc(SCC(=O)n3c4c(c5ccccc53)CCCC4)o2)cc1	101	-16	73	-0.9	-5	/	/
CCCn1cc(S(=O)(=O)CC(=O)NC2CCCCC2)c2ccccc21	29	36	146	-0.4	-5	i	1.2
Cc1cc(C)n2nc(C(=O)OCCOc3ccc(F)cc3)nc2n1	110	/	/	-2.4	-3	i	0.94
O=C(CCn1c(=S)oc2ccccc21)NCCC1=CCCCC1	98	/	/	/	/	i	0.99
CCOC(=O)c1cnc(SC)nc1NCCOC	90	26	93	/	1	i	0.82
COc1ccc(-n2nc(C(=O)NCC(=O)NCc3ccco3)c3ccccc3c2=O)cc1Cl	92	-57	106	-1.2	-4	i	1.1
O=C(CSc1nnc(-c2ccc(OC(F)F)cc2)o1)NCc1cccs1	103	60	98	-3.2	-4	i	1
CCOc1cc(C(=O)Nc2ncccn2)cc(OCC)c1OCC	130	-220	76	-0.7	-5	i	0.98
CCOc1cc(OCC)nc(S(C)(=O)=O)n1	95	/	/	-0.2	-1	i	1.2
CC1CN(Cc2nc3c(c(=O)n(C)c(=O)n3C)n2Cc2cccc(Cl)c2)CC(C)O1 (stereo unspecified)	101	/	/	-1.9	3	i	0.93
Cc1ccc(NC2SC(=O)N(Cc3cccc(C(=O)O)c3)C2=O)cc1 (stereo unspecified)	105	/	/	-1.9	-1	i	0.94
Cc1ccc(-c2nnn3c2nc(Cl)c2ccccc23)cc1	102	0	113	/	-8	i	0.65
COC(=O)c1ccc(NC(=O)CSc2nnc(COc3ccc4c(c3)CCCC4)o2)cc1	104	/	/	-1.9	10	i	0.97
CCCC1C2C(=O)N(c3ccccc3)C(=O)C2ON1c1ccccc1 (stereo unspecified)	80	4	143	-1.0	2	i	1
CSc1ccc(C2(O)Cc3cccc[n+]3C2c2ccccc2)cc1 (stereo unspecified)	96	/	/	/	/	i	0.95
O=C(NCc1ccccc1)[C@@H]1CSC2c3ccccc3C(=O)N21 (stereo partly specified)	94	30	91	-0.5	3	i	1.1
Cc1ccc(NC(=O)N2CCC(O)(c3cccnc3)CC2)cc1	93	3	205	-2.0	10	i	1
Cc1nc(-c2ccc(C(F)(F)F)cc2)sc1C(=O)NN	98	/	/	/	/	i	1
COC(=O)c1ccccc1NC(=O)c1cnn2c(C)cc(C)nc12	108	/	/	/	-1	i	0.88
COc1ccc(C2CC3(CC(C)(C)NC(=O)N3)Oc3cc(O)ccc32)cc1 (stereo unspecified)	109	15	100	-0.6	-7	i	0.93
COc1ccc(-c2nnc(SCC(=O)O)n2C)cc1OC	98	/	/	/	1	i	1
CCN(CC)c1ccc(NC(=O)/C=C\c2ccccc2Cl)cc1	104	0	70	-3.1	4	i	0.77
O=C(Cc1nnc(NC(=O)Nc2ccc(F)cc2)s1)NCc1ccccc1	87	/	/	/	/	i	0.91
Cc1ccc(S(=O)(=O)c2c(N)n(Cc3ccco3)c3nc4ccccc4nc23)cc1	102	-27	69	0.3	-16	/	/
COc1cc(/C=C/C(=O)c2ccc(O)cc2)ccc1OCC#N	98	14	67	-0.6	2	i	0.53
CC(C)=CCC/C(C)=C/C=N/NC(=O)c1cccc([N+](=O)[O-])c1	103	2	98	-1.0	-13	i	1
Cc1nc(-c2ccncc2)sc1C(=O)Nc1ccc(Cl)cc1	107	/	/	/	1	i	0.94
CC1CC(C)CN(C(=O)CCCn2c(=S)[nH]c3ccccc3c2=O)C1 (stereo unspecified)	97	/	/	-1.7	13	i	0.87
Cc1cccc(C(=O)N2CC3(C)CC2CC(C)(C)C3)c1 (stereo unspecified)	106	15	70	-1.5	-10	/	/
CCOc1ccc(Br)cc1S(=O)(=O)Nc1ccc(C(=O)OCC(=O)N(C)c2ccccc2)cc1	106	7	228	0.1	-9	i	0.87
N#Cc1ccsc1NC(=O)CN1CCN(Cc2ccccc2)CC1	101	/	/	/	-6	i	1
N#CCCn1cc(C(=O)Nc2ccccc2Br)c(-c2cccs2)n1	101	-457	68	-2.0	-13	i	0.88
COc1ccc(N=c2oc3ccccc3cc2C(=O)Nc2ccccn2)cc1OC	112	29	119	/	-1	i	0.91
Cc1ccc(S(=O)(=O)N2CCCCC2)cc1NC(=O)COC(=O)c1ccccc1F	119	/	/	/	-6	i	0.96
CCN(CC)S(=O)(=O)c1ccc(O)c(NC(=O)CN2CCc3ccccc3C2)c1	102	/	/	/	-1	i	0.99
CC(=O)c1cccc(NC(=O)c2cccc(S(=O)(=O)N(C)C)c2)c1	96	70	84	-0.9	-9	i	1
CC(C)c1ccc(S(=O)(=O)Nc2ccc(SC(F)F)cc2)cc1	96	/	/	1.5	-3	i	0.92
O=C(Nc1ccccc1-c1nnc(SCc2ccc(Cl)cc2)o1)c1ccccc1	99	28	100	-1.2	-7	i	1
CC(=O)NCC(=O)OCC(=O)Nc1nc(-c2ccccc2)cs1	110	67	105	/	-2	i	0.95
O=C(COc1ccccc1-c1ccccc1)c1ccccc1	103	/	/	-1.3	-5	i	1
CCOC(=O)C1=C(C)N(C)C(=O)NC1c1cc2c(cc1[N+](=O)[O-])OCO2 (stereo unspecified)	109	19	116	/	-1	i	1
N#CCSc1nnc(Cc2ccc3c(c2)OCO3)o1	99	17	62	-2.7	-7	i	0.96
CCOC(=O)c1nc(C)n(-c2ccc([N+](=O)[O-])cc2)n1	105	/	/	/	-2	i	0.95
CCCn1cnc2cc(NCc3cccs3)ccc21	99	/	/	/	/	i	0.91
COc1ccc(-c2oc3ncn4nc(COc5ccccc5)nc4c3c2-c2ccc(OC)cc2)cc1	85	-15	240	-1.0	-6	i	0.85
CC(C)Nc1nc(-c2ccccn2)nc(-c2ccccc2)c1C#N	70	/	/	/	1	i	0.83
Cc1nc(SCC(=O)NCCc2ccccc2)nc(C)c1C	102	-25	68	0.0	-9	i	1.1
CCOC(=O)/C(C#N)=C1\C=CN(C)C(C)=N1	92	-16	169	0.1	-1	i	0.96
Cc1csc(/N=C/c2ccc([N+](=O)[O-])cc2)n1	44	27	91	-0.3	-6	i	0.92
COc1ccc(NC(=O)CN(C)CC(=O)Nc2ccc(Cl)cc2[N+](=O)[O-])cc1	105	0	95	/	10	i	1
CCn1c(SCC(=O)N/N=C/C=C/c2ccccc2[N+](=O)[O-])nnc1-c1ccccc1	100	9	125	-1.1	-11	i	1
Nn1c(Cc2ccc(F)cc2)n[nH]c1=S	99	/	/	/	-10	i	0.98
